Screening data deposited in PubChem by Broad Institute.
T cruzi inh – blocks replication of Trypanosoma cruzi; T. cruzi beta-gal in NIH3T3, luminescence, 90 h; inhibition, % (no concentration beside the values); actives 1.4% (n = 300,000); AID 1885;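 active = mean inhibition across valid replicates above about 55%, limit read from the data; inconclusive = mean below that limit but half or more replicates reach it; inactive = mean below it, under half of replicates reach it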;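 also: signal also drops with host cell toxicity which is not excluded here; 0% = plate median of DMSO wells and 100% = zero luminescence signal; higher percent means less beta-gal luminescence so fewer parasites; stock transfer was 50 nL into about 50 µL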
MLL AF4-AF9 inh – MLL-AF4/AF9 protein interaction inhibition; actives 0.47% (n = 350,000); inhibition, % at 10 µM; AID 651704; AlphaScreen, biotin-AF4 peptide binding to FLAG-AF9;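 active = every replicate reaching a set inhibition limit, whatever the replicate mean, cut at about 25% in these data; inconclusive = mean inhibition reaches that limit but some replicates miss it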;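 also: 0% = plate neutral control median and 100% = total signal loss; the record names both 10 and 1 µM as test concentration; the first replicate is given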
Target sequence (P42568 whole entry, looked up): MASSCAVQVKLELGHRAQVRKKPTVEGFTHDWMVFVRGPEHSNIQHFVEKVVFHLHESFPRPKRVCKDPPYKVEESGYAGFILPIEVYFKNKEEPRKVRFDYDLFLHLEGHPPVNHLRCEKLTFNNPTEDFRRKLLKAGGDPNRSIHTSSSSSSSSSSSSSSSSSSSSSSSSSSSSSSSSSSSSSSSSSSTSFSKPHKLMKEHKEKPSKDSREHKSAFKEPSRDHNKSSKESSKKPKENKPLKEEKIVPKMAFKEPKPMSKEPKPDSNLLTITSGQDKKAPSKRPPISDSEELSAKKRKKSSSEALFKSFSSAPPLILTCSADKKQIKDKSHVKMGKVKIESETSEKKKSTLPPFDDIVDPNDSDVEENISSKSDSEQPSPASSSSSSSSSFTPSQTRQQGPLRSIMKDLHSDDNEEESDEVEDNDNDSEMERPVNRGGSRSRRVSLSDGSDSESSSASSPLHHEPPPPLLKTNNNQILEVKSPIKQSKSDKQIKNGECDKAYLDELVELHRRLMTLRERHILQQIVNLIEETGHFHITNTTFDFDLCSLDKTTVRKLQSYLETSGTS
Beta cell apopt – beta cell apoptosis inhibition. INS-1E cytokine-induced death, ATP luminescence, 48 h; percent of positive-control rescue, neutral wells zero. protection from apoptosis, % (test concentration not listed). actives 0.8% (n = 300,000). AID 435005;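 active = all replicates at 75% or more, or half of them and the mean; inconclusive = half reach 75% but not the mean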;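 also: 0% = cytokine-treated negative control wells and 100% = positive control rescue; higher means more ATP so stronger rescue from cytokine killing; wells of about 40 µL received 100 nL stock; the first replicate is given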
Calb FLC – C. albicans growth modulation with fluconazole; actives 0.57% (n = 300,000); growth inhibition, % (no concentration beside the values); C. albicans CaCi-2 (fluconazole-resistant clinical isolate) + fluconazole, Alamar Blue growth, 48 h;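 active = most replicates above 75%; inconclusive = exactly half above 75%; inactive = most below 75%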;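 also: all wells also contain fluconazole at 8 µg/ml as a sub-toxic cotreatment; 0% = median of DMSO wells and 100% = median of geldanamycin control wells; wells of about 8 µL received 7.5 nL stock; the first replicate is given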
FGF22 binding – FGF22 (human) thermal shift binding | Q9HCT0 | recombinant FGF22 thermal shift, SYPRO orange fluorescence; percent of sucrose octasulfate shift, DMSO zero | calls only at 9.99 µM | actives 1.5% (n = 340,000) | AID 651658;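 active = melting point raised past a set limit in the mean and every replicate; inconclusive = no clear call; three in four hits are not shown here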
Target sequence (Q9HCT0 whole entry, looked up): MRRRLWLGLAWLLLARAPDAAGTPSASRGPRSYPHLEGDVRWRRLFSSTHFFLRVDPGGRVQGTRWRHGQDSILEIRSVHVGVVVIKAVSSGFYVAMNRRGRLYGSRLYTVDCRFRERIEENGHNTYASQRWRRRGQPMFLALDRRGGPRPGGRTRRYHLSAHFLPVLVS
Ecoli rRNA inh – inhibits bacterial ribosomal RNA function over humanized ribosomes | GFP signal change (wild-type ribosome), % (no concentration beside the values) | E. coli WT GFP vs humanized-ribosome RFP mutants, fluorescence, 24 h; hits give low values; DMSO median 0, no signal -100 | actives 1.6% (n = 350,000) | AID 720706;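 active = significant combined selectivity score with lowered wild-type GFP, culture density cut under 30%, mutant RFP and density less affected; inactive = any of these conditions unmet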; also: one replicate is shown; some compounds called inactive have numbers as strong as hits
RanGTP-Impb inh – inhibitors of RanGTP-importin-beta interaction, primary screen, biochemical, FRET, CFP-Ran, YFP-importin-beta, homogeneous; cell-free CFP-Ran/YFP-importin-beta FRET ratio; AID 2216; inhibition, % (no concentration beside the values); actives 1.1% (n = 300,000);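 active = most replicates above 15%; inconclusive = exactly half above 15%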;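 also: 0% = DMSO wells and 100% = Ran loaded with GDP instead of GTP; wells of about 40 µL received 100 nL stock; the first replicate is given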
ALR inh – blocks human ALR sulfhydryl oxidase activity; purified ALR, DTT oxidation, H2O2 HRP-luminol luminescence; inhibition, % (test concentration not listed); actives 3.8% (n = 290,000); AID 485317;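 active = mean and each replicate at 75% or more; inconclusive = only one of the two met; inactive = neither met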;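 also: stock transfer was 7.5 nL into about 7.5 µL; 0% = neutral wells and 100% = wells with inactivated enzyme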
Target sequence (P55789 whole entry, looked up): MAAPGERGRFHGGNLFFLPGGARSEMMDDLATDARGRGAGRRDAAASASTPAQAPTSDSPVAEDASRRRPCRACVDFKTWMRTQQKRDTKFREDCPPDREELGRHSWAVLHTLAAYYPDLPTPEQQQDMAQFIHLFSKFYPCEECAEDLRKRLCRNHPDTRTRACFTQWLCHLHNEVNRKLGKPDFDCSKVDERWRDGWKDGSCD
Ecoli rRNA inh OD600 – also measured in Ecoli rRNA inh; calls as there; OD600 change, %; measured here: OD600 growth;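 optical density of the mix in the first replicate; 0 = DMSO median and -100 = no signal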
Ecoli rRNA inh RFP – also measured in Ecoli rRNA inh; calls as there; RFP signal change, %; measured here: RFP humanized mutant strains;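 first replicate; 0 = DMSO median and -100 = no signal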
Active calls of the source: *; i = inactive; ? = inconclusive; · = no result given.

entry	Structure	T cruzi inh	MLL AF4-AF9 inh	Beta cell apopt	Calb FLC	FGF22 binding	Ecoli rRNA inh	Ecoli rRNA inh OD600	Ecoli rRNA inh RFP	RanGTP-Impb inh	ALR inh
1	Cc1cccc(C(=O)N[C@H](C(=O)NCc2cccs2)C(C)C)c1	·	0.1	3	·	i	4	10	-1.5	·	0
2	CC(CN1CCOCC1)OC(=O)c1cccs1 (stereo not drawn)	-10	·	-1	-2	·	·	·	·	2.5	·
3	CC(=O)Nc1c(C(=O)N2CCOCC2)sc2nc3c(cc12)COC(C)(C)C3	-1	·	1	1	·	7	8	-3.6	-3.0	2
4	CN(Cc1c(C(=O)N2CCCCCCC2)nc2ccc(Cl)cn12)C1CCOC1 (stereo not drawn)	-9	0.5	-5	4	i	5	9	-1.3	0.2	-11
5	Cn1cnnc1SCC(=O)Nc1ccccc1	7	-1.4	·	8	i	3	13	-1.7	5.2	-15
6	CCn1c(=O)c2cc(C(=O)N3CCN(C)CC3)sc2c2ccccc21	3	-5.8	-1	-5	i	-6	-11	0.6	4.1	25
7	COCCNc1nc(C)cc(-c2cc(C(=O)NC3CCCC3)on2)n1	-7	·	-1	8	·	·	·	·	4.8	-10
8	Cc1ccc(-n2ncc3c2CC(C)(C)CC3NC(=O)c2ccc[n+]([O-])c2)cc1 (stereo not drawn)	-13	0.2	-10	-4	i	-6	-9	-2.6	1.2	-4
9	COc1cccc(NC(=O)c2c(F)cccc2F)c1	·	-41	-2	·	i	4	7	-15	·	·
10	COC(=O)NC1c2ccccc2Oc2ccc(C)cc21 (stereo not drawn)	-1	-10	7	-11	i	8	8	-1.0	-2.5	·
11	C=CCSc1nc2c(cnn2-c2ccc(C)c(C)c2)c(=O)[nH]1	9	2.2	·	-1	i	8	7	1.2	4.6	-13
12	Cc1cc(/C=N/NC(=O)c2ccncc2)c(C)n1-c1ccccc1	5	6.4	-2	-3	i	9	2	-2.6	-2.2	·
13	O=C(NCc1ccccc1)c1cc2ccccc2o1	-1	·	-1	-11	·	·	·	·	-4.1	·
14	OCC#CCSc1nnc(-c2ccc(Br)cc2)o1	13	·	·	-48	·	·	·	·	-1.5	4
15	COc1ccc(CC(=O)N2N=C(C)CC2(O)C(F)(F)F)cc1 (stereo not drawn)	-20	·	·	-5	·	·	·	·	-2.9	-4
16	COc1ccc(CCNC(=O)C2CCN(C(=O)c3ccc(OC)c(OC)c3)CC2)cc1	13	-6.0	7	12	i	6	16	0.4	0.0	-7
17	O=C(O)CSc1cc(NS(=O)(=O)c2ccc(Br)cc2)c2ccccc2c1O	8	-0.7	35	2	i	-20	-17	-9.2	3.2	19
18	COc1ccc(-c2noc(=O)n2Cc2ccc(F)cc2Cl)cc1	-14	-2.4	0	4	i	-10	3	1.3	2.2	-3
19	COc1cccc(OCC(=O)NNC(=O)c2ccc3ccccc3c2)c1	20	-3.6	1	0	i	6	7	4.2	2.7	2
20	O=C(COC(=O)c1cc(S(=O)(=O)N2CCOCC2)ccc1Cl)NCc1ccc2c(c1)OCO2	·	1.4	2	·	i	-2	4	-1.9	·	0
21	O=C(Nc1ccc(Cl)cc1C(F)(F)F)C(Sc1cccc[n+]1[O-])c1ccccc1 (stereo not drawn)	-4	-6.1	-8	12	i	-19	-17	-2.6	5.5	-34
22	COc1ccccc1NC(=O)Cc1noc(CSc2nnc(N)s2)n1	6	·	-3	-12	·	·	·	·	3.8	-14
23	Cn1c(=O)c(=O)n(C)c2cc(S(=O)(=O)NCc3ccc(Cl)cc3)ccc21	-29	1.0	-10	-15	i	13	16	-0.7	5.6	3
24	C=CCn1c(O)c(N=NC(=O)OCC)c2ccccc21	1	4.4	3	6	i	·	·	·	-3.6	·
25	CCOC(=O)C1CCCN(C(=O)c2sc3nc(C)nc(N(CC)CC)c3c2C)C1 (stereo not drawn)	-11	·	-5	-8	·	·	·	·	5.3	2
26	CC1CCN(S(=O)(=O)c2ccc(S(=O)(=O)N3CCC4(CC3)OCCO4)cc2)CC1	4	·	2	-1	·	·	·	·	-1.5	-3
27	CC(CN1C(C)CCCC1C)OC(=O)c1cccc(Br)c1 (stereo not drawn)	1	2.8	-3	0	i	11	8	-0.8	-1.6	-4
28	Cc1ccc(CNC(=O)CCNC(=O)Cn2ccc3ccccc3c2=O)o1	-1	·	2	-2	·	·	·	·	-2.7	2
29	O=C(Cn1nc(-c2ccccc2)c2ccccc2c1=O)NN1CCOCC1	-4	1.1	3	7	i	8	10	0.5	-1.8	-4
30	CN(c1ccccc1)S(=O)(=O)c1cc(C(=O)NCCCn2ccnc2)ccc1Cl	·	3.7	3	·	i	-9	-12	2.9	·	1
31	Nc1nc2c(s1)C(=O)CC(c1ccccc1)C2 (stereo not drawn)	-27	·	3	-17	·	·	·	·	7.1	-27
32	CCOC(=O)Cn1nc(Cc2ccccc2)c2ccccc2c1=O	-7	·	-3	1	·	·	·	·	-0.5	2
33	COc1cc(/C=C/C(=O)NCc2nc3ccccc3[nH]2)cc(OC)c1OC	5	-11	0	25	i	-5	-6	-2.1	-0.2	1
34	CC1CCN(C(=O)CSc2nc(C3CC3)nc3ccccc23)CC1	6	2.3	-2	7	i	-21	-41	-6.7	-0.5	·
35	Cc1nnc(Sc2c(N)n(C)c(=O)[nH]c2=O)s1	-2	1.9	-8	0	i	7	7	0.6	19*	-3
36	CC(C)(C)Nc1nc(Cl)nc(NC2CCCCC2)n1	3	-0.5	11	12	i	-19	-15	0.5	-0.9	-21
37	CCCCN(CCCC)CCCNC(=O)CN1C(=O)COc2ccc(S(=O)(=O)N3CCC(C)CC3)cc21	10	1.6	-2	-7	i	1	1	0.1	3.4	-9
38	O=C(NNC(=S)NC(=O)C12CC3CC(CC(C3)C1)C2)c1ccncc1	-2	-1.7	22	103*	i	-40	-45	2.0	?	57
39	COC(=O)c1cc(OC)c(OC)cc1NC(=O)C(C)Sc1ccc(C)cc1 (stereo not drawn)	-6	-30	-6	6	i	-26*	-21*	0.1*	-2.6	·
40	Nc1nnc(CSCc2cccc(Br)c2)s1	-3	-1.7	-5	2	i	9	2	0.6	2.2	-2
41	CCCc1cc(=O)oc2cc(OCC(=O)N3C[C@H]4C[C@@H](C3)c3cccc(=O)n3C4)c(Cl)cc12	6	3.7	1	2	i	·	·	·	2.6	-3
42	COc1ccc2cnnc(SCC(=O)Nc3ccc(C(C)=O)cc3)c2c1OC	-16	-1.4	3	4	i	2	9	8.2	?	74
43	CC(=O)Nc1cccc(NS(=O)(=O)c2cc3c4c(c2)CCN4C(=O)CC3)c1	3	3.4	-6	4	i	3	10	-1.2	-1.1	-7
44	COc1ccc(-c2cc(C(=O)NCC3CCCO3)on2)cc1OC (stereo not drawn)	8	-0.4	-5	-11	i	-1	3	-1.0	-1.6	-7
45	COc1ccc(N=Cc2nc(-c3ccccc3)oc2OC(=O)c2ccccc2)cc1	-16	-2.5	-2	3	·	-1	10	-3.6	-2.4	24
46	CC(C)CN(C(=O)CN1C(=O)C2CCCCC2C1=O)c1c(N)n(Cc2ccccc2)c(=O)[nH]c1=O (stereo not drawn)	3	-2.9	4	3	i	6	3	0.2	?	-3
47	Cc1[nH]n(-c2cccc3ccccc23)c(=O)c1/C=N/c1sc2c(c1C#N)CCC2	12	·	-7	-17	·	·	·	·	-4.0	34
48	Cc1cc(C)c(COc2ccc(/C=N/n3c(C)n[nH]c3=S)cc2)c(C)c1	-5	·	9	-10	·	·	·	·	-0.5	37
49	COc1ccc(C(=O)Nc2ccc(Cl)cc2F)cc1S(=O)(=O)N1CCCC1	·	1.0	-6	·	i	-12	-16	2.4	·	-1
50	CCCCn1c(N)c(N(CC)C(=O)c2ccc(C)cc2)c(=O)[nH]c1=O	-13	0.1	-4	-5	i	5	4	-4.2	6.1	-2

More structures
entry	Structure	T cruzi inh	MLL AF4-AF9 inh	Beta cell apopt	Calb FLC	FGF22 binding	Ecoli rRNA inh	Ecoli rRNA inh OD600	Ecoli rRNA inh RFP	RanGTP-Impb inh	ALR inh
51	O=C(C1CCCC1)N1CCN(S(=O)(=O)c2ccc(F)cc2)CC1	3	-2.2	-1	-15	i	10	-6	-0.4	2.8	·
52	O=C(Nc1ccc2ccccc2c1)c1cccnc1	-1	·	5	4	·	·	·	·	-0.8	-20
53	O=C(CSCc1ccccn1)Nc1ccccc1	-9	·	·	-9	·	·	·	·	2.7	-5
54	S=C(NCCCN1CCOCC1)Nc1cccc(Cl)c1	3	1.0	-4	-3	i	5	5	1.2	2.5	-2
55	O=C1NC(=Nc2cccnc2)S/C1=C/c1ccc(F)cc1	-6	0.3	-1	5	i	5	0	-3.0	-3.7	-9
56	COC(=O)c1cc2nc(-c3ccc(C)cc3)cc(C(F)(F)F)n2n1	-11	0.8	-4	5	i	11	4	-1.4	4.6	1
57	O=C(NCc1ccncc1)c1c(F)c(F)c(F)c(F)c1F	17	·	-2	26	·	·	·	·	2.9	9
58	Cc1cc(C)cc(N(CC(=O)Nc2ccccc2-c2ccccc2)S(=O)(=O)c2ccccc2)c1	35	·	-3	7	·	·	·	·	1.6	-4
59	O=C(O)c1cc(-c2ccc(Cl)c(Cl)c2)n(-c2ccccc2)n1	1	-5.6	-7	23	i	-8	-14	1.6	2.8	·
60	COc1ccc(S(=O)(=O)N2CCC(NC(=O)OCc3c(Cl)cccc3Cl)CC2)cc1	28	·	8	-4	·	·	·	·	3.4	-1
61	COc1ccc(NC(=O)C(c2ccc(C)cc2)N(C)C(=O)CC2NC(=O)NC2=O)cc1 (stereo not drawn)	9	·	2	-3	·	·	·	·	-1.4	-3
62	CC(C)(CNC(=O)c1sc2cc(Cl)ccc2c1Cl)N1CCOCC1	38	-1.8	·	13	i	1	2	-1.7	3.4	-6
63	O=C(Nc1cccc(Cl)c1Cl)c1snnc1-c1ccccc1	-4	·	4	3	·	·	·	·	?	0

Entries of single compounds as entered above. Values in the order: T cruzi inh | MLL AF4-AF9 inh | Beta cell apopt | Calb FLC | FGF22 binding | Ecoli rRNA inh | Ecoli rRNA inh OD600 | Ecoli rRNA inh RFP | RanGTP-Impb inh | ALR inh
Listed for `O=C(Nc1cccc(Cl)c1Cl)c1snnc1-c1ccccc1` : -4 | · | 4 | 3 | · | · | · | · | ? | 0
Listed for `O=C(COC(=O)c1cc(S(=O)(=O)N2CCOCC2)ccc1Cl)NCc1ccc2c(c1)OCO2` : · | 1.4 | 2 | · | i | -2 | 4 | -1.9 | · | 0
Listed for `O=C(Cn1nc(-c2ccccc2)c2ccccc2c1=O)NN1CCOCC1` : -4 | 1.1 | 3 | 7 | i | 8 | 10 | 0.5 | -1.8 | -4
Listed for `CN(Cc1c(C(=O)N2CCCCCCC2)nc2ccc(Cl)cn12)C1CCOC1` (stereo not drawn) : -9 | 0.5 | -5 | 4 | i | 5 | 9 | -1.3 | 0.2 | -11
Listed for `O=C(NCc1ccccc1)c1cc2ccccc2o1` : -1 | · | -1 | -11 | · | · | · | · | -4.1 | ·

Some of the compounds tested; rates above refer to the full screens.
